Bfl-1 A1 inh: inhibitors of the anti-apoptotic protein A1, read as caspase activation; caspase activation, % (test concentration not listed); AID 2462; 0.066% of 330,000 active; MEF A1-2A-BIM cells, Caspase-Glo 3/7 luminescence, 3 h; percent of clofoctol response, vehicle zero;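 active = over half of replicate activation scores above 10%, or exactly half above 10 with the replicate mean above 10; inconclusive = replicate mean below 10 yet half the replicates above 10; inactive = over half of replicates below 10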;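 also: wells of about 30 µL received 50 nL stock; many hits fall short of the cut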
Beta cell apopt: beta cell apoptosis inhibition | INS-1E cytokine-induced death, ATP luminescence, 48 h; percent of positive-control rescue, neutral wells zero | protection from apoptosis, % (no concentration beside the values) | 0.8% of 300,000 active | AID 435005;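 active = all replicates at 75% or more, or half of them and the mean; inconclusive = half reach 75% but not the mean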;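 also: 0% = cytokine-treated negative control wells and 100% = positive control rescue; higher means more ATP so stronger rescue from cytokine killing; wells of about 40 µL received 100 nL stock; the first replicate is given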
Vif TR-FRET: HIV-1 Vif–A3G interaction blockers – biochemical, TR-FRET, GST-Vif 1-94, biotin-A3G peptide, dose response retest, primary screen (AID 1117319); TR-FRET GST-Vif / biotin-A3G peptide binding; higher % means a stronger effect; test concentration not given here; strong numbers were not always called active; inhibition, %, or IC50 in µM where a hit was titrated; 0.57% of 260,000 active;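 active = above the screen mean plus three standard deviations and confirmed in dose response; inconclusive = results disagree or hit not tested in dose response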;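 also: Vif residues 1-94 fused to GST binding biotinylated APOBEC3G peptide 110-148; 0% = full assay without inhibitor and 100% = GST in place of GST-Vif; retest series ran down from 100 µM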
LANA-H2B inh: blocks KSHV LANA binding to histone H2A/H2B; Q9QR71; cell-free LANA-H2A/H2B peptide, fluorescence polarization; inhibition, % (no concentration beside the values); 0.6% of 320,000 active; in the data active = inhibition mostly above about 10%, no sharp cut-off; inactive = mostly below about 6.7%;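 also: stock transfer was 7.5 nL into about 10 µL; 0% = median of vehicle wells and 100% = median of positive control wells; one replicate is shown; the record names a cut of 25% in any replicate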
T cruzi inh: T. cruzi replication inhibition | T. cruzi beta-gal in NIH3T3, luminescence, 90 h | inhibition, % (no concentration beside the values) | 1.4% of 300,000 active;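 active = mean inhibition across valid replicates above about 55%, limit read from the data; inconclusive = mean below that limit but half or more replicates reach it; inactive = mean below it, under half of replicates reach it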;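 also: signal also drops with host cell toxicity which is not excluded here; 0% = plate median of DMSO wells and 100% = zero luminescence signal; higher percent means less beta-gal luminescence so fewer parasites; stock transfer was 50 nL into about 50 µL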
MLL AF4-AF9 inh: blocks AF4 peptide binding to human AF9; AlphaScreen, biotin-AF4 peptide binding to FLAG-AF9; 0.47% of 350,000 active; inhibition, % at 10 µM;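 active = every replicate reaching a set inhibition limit, whatever the replicate mean, cut at about 25% in these data; inconclusive = mean inhibition reaches that limit but some replicates miss it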;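 also: 0% = plate neutral control median and 100% = total signal loss; the record names both 10 and 1 µM as test concentration; the first replicate is given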
Target sequence (P42568 whole entry, looked up): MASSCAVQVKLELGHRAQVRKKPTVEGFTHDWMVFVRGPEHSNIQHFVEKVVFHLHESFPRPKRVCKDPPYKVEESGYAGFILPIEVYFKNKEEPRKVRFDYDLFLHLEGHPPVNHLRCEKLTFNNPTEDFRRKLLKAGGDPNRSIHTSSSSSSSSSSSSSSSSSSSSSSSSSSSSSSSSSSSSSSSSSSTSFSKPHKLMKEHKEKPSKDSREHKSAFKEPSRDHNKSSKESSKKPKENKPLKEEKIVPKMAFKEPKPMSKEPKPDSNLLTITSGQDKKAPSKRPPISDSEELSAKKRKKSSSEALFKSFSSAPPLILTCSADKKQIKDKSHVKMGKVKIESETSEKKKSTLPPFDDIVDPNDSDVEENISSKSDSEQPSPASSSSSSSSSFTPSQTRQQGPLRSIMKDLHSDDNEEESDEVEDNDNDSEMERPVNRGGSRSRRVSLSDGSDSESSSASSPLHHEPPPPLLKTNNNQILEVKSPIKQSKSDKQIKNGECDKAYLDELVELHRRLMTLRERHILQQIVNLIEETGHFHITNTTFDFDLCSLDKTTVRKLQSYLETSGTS
RanGTP-Imp inh: disruptors of Ran-importin-beta complex formation – biochemical, FRET, CFP-Ran, YFP-importin-beta, homogeneous, primary screen. cell-free CFP-Ran/YFP-importin-beta FRET ratio. inhibition, % (concentration not given with the values). 1.1% of 300,000 active. AID 2216;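 active = most replicates above 15%; inconclusive = exactly half above 15%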;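 also: 0% = DMSO wells and 100% = Ran loaded with GDP instead of GTP; wells of about 40 µL received 100 nL stock; the first replicate is given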
Calb FLC: affects C. albicans growth with fluconazole; C. albicans CaCi-2 (fluconazole-resistant clinical isolate) + fluconazole, Alamar Blue growth, 48 h; growth inhibition, % (concentration not given with the values); 0.57% of 300,000 active;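 active = most replicates above 75%; inconclusive = exactly half above 75%; inactive = most below 75%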;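 also: all wells also contain fluconazole at 8 µg/ml as a sub-toxic cotreatment; 0% = median of DMSO wells and 100% = median of geldanamycin control wells; wells of about 8 µL received 7.5 nL stock; the first replicate is given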
The depositor's hits bear a star; u = inconclusive; x = not tested or not shown; & = joins results of further samples.

SMILES	Bfl-1 A1 inh	Beta cell apopt	Vif TR-FRET	LANA-H2B inh	T cruzi inh	MLL AF4-AF9 inh	RanGTP-Imp inh	Calb FLC
O=C(O)CCN1C(=O)c2ccncc2C1=O	0.6	3	1%	0.1	-2	x	-2.0	-10
O=C(COC(=O)c1nc(Cl)ccc1Cl)Nc1ccc2c(c1)OCO2	0.3	-10	-5%	2.2	-5	-3.9	x	u
CCN(CC(=O)Nc1c(F)cccc1F)C(=O)CCc1nc2cc(S(=O)(=O)N(C)C)ccc2n1CC	1.1	2	x	-1.0	2	-1.1	4.6	3
CC(C)CNC(=O)c1cccc(Cn2cc(Cl)cn2)c1	-0.3	0	-2%	-2.6	-13	x	1.1	0
COc1ccc(CC(=O)N/N=C/c2cccnc2)cc1OC	-2.4	-4	4%	-1.7	-22	0.6	4.2	2
O=C(Nc1cscc1S(=O)(=O)c1ccc(Cl)cc1)c1ccccc1Cl	-0.3	-5	-13%	0.6	25	2.6	0.2	4
COc1ccc(C(=O)N(CCc2ccccc2)Cc2cccs2)c(OC)c1	0.9	-5	x	-3.4	21	-4.0	1.5	4
Cc1cc(Br)c(NC(=O)COC(=O)c2ccc[n+]([O-])c2)c(Br)c1	0.9	-1	x	2.2	x	4.4	x	x
COCCN(Cc1nc2ccccc2c(=O)[nH]1)C(=O)COc1c(C)cc(Cl)cc1C	-0.2	-12	-6%	-4.1	x	0.0	x	x
C=CCc1ccc(OCCOCCOc2cccc3ccc(C)nc23)c(OC)c1	-0.2	4	0%&-6%	-0.2	12	x	0.9	-1
COc1ccc(OCCN(C)Cc2ccccc2)cc1	0.5	0	-1%	0.5	6	x	3.2	-2
CC(=O)NC(CCS(C)(=O)=O)C(=O)Nc1ccc(Oc2ccccc2)cc1 (stereo not drawn)	1.3	0	10%	-2.6	-15	-5.6	-3.2	0
COc1ccccc1CNC(=O)C1CC(c2ccccc2C(F)(F)F)=NO1 (stereo not drawn)	-0.4	-6	4%	-9.0	-2	x	2.7	0
Cc1ccc(OCC(=O)N2CCCC(CO)(CCOc3ccccc3)C2)cc1 (stereo not drawn)	1.2	-5	x	0.9	1	0.6	1.6	-3
O=C(Nc1cccc([N+](=O)[O-])c1)c1ccncc1	2.8	-4	x	-9.6	3	x	-0.6	-5
CCCCCOc1ccccc1C(=O)NCC(=O)O	0.3	0	-1%	0.3	-2	x	4.7	1
CCOC(=O)C1CCCN(C(=O)Cn2nc(C)n3c(cc4c(OC)cccc43)c2=O)C1 (stereo not drawn)	0.2	-1	4%	-0.2	1	-2.2	-0.9	0
C[C@H](OC(=O)c1[nH]cnc1C(=O)N1CCN(C(=O)OC(C)(C)C)CC1)c1ccccc1	-1.2	0	x	1.4	x	0.4	x	x
Cc1nn(C)c(C)c1S(=O)(=O)N(CC(=O)NCc1ccco1)c1ccc(C(C)C)cc1	0.6	-1	33%	1.5	-5	x	-0.6	-1
O=C(COC(=O)CCC1CCCC1)Nc1ccccc1Br	0.1	-1	19%	-2.0	x	-7.2	x	x
N=c1n(CCN2CCCCC2)c2ccccc2n1CC(O)c1cccc(Br)c1 (stereo not drawn)	0.7	73	-1%	0.9	35	x	-6.2	-3
COc1ccc(-c2[nH]ncc2CN2CCCC2c2nonc2C)c(F)c1 (stereo not drawn)	0.4	3	x	2.7	9	0.6	-2.0	-1
COc1ccc(/C=N\NC(=O)c2ccc([N+](=O)[O-])cc2)cc1COc1c(F)c(F)cc(F)c1F	-1.0	-6	x	-6.4	x	-0.7	x	2
Cc1noc(C)c1C(=O)NCc1ccccc1Br	0.5	0	-9%	1.8	-10	-2.4	-1.8	-1
CCOC(=O)c1cnc(SCc2cccc(C)c2)nc1N	-0.6	2	2%	1.6	11	x	-4.4	-20
COc1ccc(-c2ccc(SCC(=O)c3ccccc3)nn2)cc1OC	-1.2	-9	-7%	2.8	-1	0.5	-0.3	-2
COc1ccc(-c2cc(C(F)(F)F)nc(N3CCN(C)CC3)n2)cc1OC	0.6	10	2%	-5.3	31	x	0.3	-21
O=S(=O)(Nc1ccc2c(c1)OCCO2)c1ccc(F)c(F)c1	0.7	-1	x	1.1	-5	0.6	5.2	-1
O=C1c2ccccc2C(=O)c2c1ccc(C(=O)N1CCCCC1)c2NCCO	-0.4	7	-9%	-7.0	11	x	-1.5	33
Cc1cc(C)cc(OCCNC(=O)C(C)N2C(=O)c3ccccc3C2=O)c1 (stereo not drawn)	0.4	-3	-8%	-0.8	1	-1.8	5.1	1
CCN(CC)S(=O)(=O)N1CCC(C(=O)NCc2ccco2)CC1	0.1	-4	-7%	-2.5	-1	-0.7	0.2	-4
O=C(O)C1CSC(c2ccncc2)N1 (stereo not drawn)	-0.3	-2	-4%	-7.8	-5	x	3.7	-1
COC(=O)C1=C(C)N(CCc2c[nH]c3ccccc23)C(=O)/C1=C\N(C)C	0.3	-3	-2%	3.2	x	5.5	-5.7	-7
CCN1CCN(CCCNC(=O)CCC(=O)N2CCOc3ccccc32)CC1	1.0	-4	x	4.2	-8	4.6	1.7	-7
CC(C)Cc1ccc(C(=O)NCc2ccc3c(c2)OCO3)o1	0.0	-3	x	-5.5	14	-0.1	-3.2	-24
CC(=O)c1ccc(N2CCN(C(=O)CN3C(=O)NC4(CCCCC4)C3=O)CC2)c(F)c1	-0.1	4	-3%	6.5	x	-0.7	x	x
Cc1ccc(S(=O)(=O)N2CCOC23CCN(C(=O)C(=O)NCc2ccccc2)CC3)cc1	-0.1	-3	2%	0.4	-1	0.4	-2.0	0
Cc1oc2c(C)c3oc(=O)c(CC(=O)N[C@@H](CCCNC(N)=O)C(=O)O)c(C)c3cc2c1C	0.0	-7	-1%	5.8	-3	-20	-0.2	-5
CCCCC(=O)Nc1nnc(S(=O)(=O)N(CC)c2ccccc2)s1	-0.4	-4	-6%	4.0	-10	-2.1	-5.3	0
C=CC[C@@H](CC(=O)N[C@H](CO)Cc1ccccc1)C(=O)NC[C@@H](OC(=O)[C@@H](CC=C)Cc1ccc(F)cc1)c1ccccc1	-0.2	3	x	1.6	x	-5.4	x	x
Cc1noc(C)c1S(=O)(=O)Nc1ccc(C(=O)N2CCN(c3ccc(F)cc3)CC2)cc1	0.2	2	0%	1.9	21	-5.3	-1.2	8
Cc1ccc(S(=O)(=O)NCCOc2nc(N3CCOCC3)nc(N3CCOCC3)n2)cc1	0.1	1	10%	0.8	7	-0.8	2.5	-27
CSc1nc(-c2ccc(C)cc2)[nH]c1S(=O)(=O)c1ccccc1	0.2	x	2%	1.5	-1	x	-2.6	-2
COc1cccc(NC(=O)CCC2CCN(C(=O)c3c(C)noc3C)CC2)c1	x	x	3%	x	0	-0.2	1.4	2
CCCC(C(=O)NC1CCCC1)N(Cc1ccc2c(c1)OCO2)C(=O)c1snc(C(N)=O)c1N (stereo not drawn)	1.0	-4	-1%	-6.5	15	x	3.3	23
CCCCn1c(N)c(N(Cc2ccccc2OC)C(=O)CN2C(=O)NC(C)(c3ccccc3)C2=O)c(=O)[nH]c1=O (stereo not drawn)	-0.2	-3	x	-7.7	1	-0.2	6.0	0
COC(=O)CNC(=O)c1ccc(=O)oc1	-0.7	-6	-1%	2.9	-8	x	1.6	-1
O=C(OCc1csc(-c2ccccc2)n1)c1ccc(O)cc1	-1.2	-1	-9%	-3.7	2	-1.5	0.3	32
NC1=NC(=O)/C(=C/c2cn(Cc3ccccc3)c3ccccc23)S1	0.5	7	x	-4.7	-20	-0.6	5.2	2
CCCC(=O)Nc1ccc(OCC(O)CNC(C)C)c(C(C)=O)c1 (stereo not drawn)	0.5	-6	-5%	2.4&-76	-17	-3.1	2.7	x
(listing goes on)
SMILES	Bfl-1 A1 inh	Beta cell apopt	Vif TR-FRET	LANA-H2B inh	T cruzi inh	MLL AF4-AF9 inh	RanGTP-Imp inh	Calb FLC
Cc1noc(C)c1C(=O)N1CCC(C(=O)c2ccc(F)cc2F)CC1	1.5	-3	-11%	1.1	-9	-5.1	-0.9	11
CC(=O)Nc1ccc(N2CC(C)(C)C2=O)cc1	0.0	-4	0%	-3.7	-5	-5.5	1.3	72*
Cc1ccccc1-n1c(SCC(=O)N2CCC(C(=O)O)CC2)nnc1-c1ccncc1	0.8	-8	u	1.8	-11	1.8	u	-19
Nc1ccccc1C(=O)NCCCN1CCN(c2cccc(Cl)c2)CC1	0.3	3	x	0.0	13	5.0	10	4
COc1ccccc1CCNS(=O)(=O)CCNC(=O)c1ccc2c(c1)OCO2	-0.9	x	-6%	2.2	-3	-0.8	u	-4
CCOC(=O)C1=C(CC)Nc2ccccc2N/C1=N\S(=O)(=O)c1ccc(C(=O)OCC)cc1	-1.5	4	x	-3.7	-6	-7.1	u	38
COCCCNC(=O)C1CCN(S(=O)(=O)N(CC(C)C)CC(C)C)CC1	0.5	-7	-5%	1.0	-10	x	0.9	13
O=C1CN(C(=O)CSc2nc3ccccc3c(=O)n2Cc2ccc(F)cc2)c2ccccc2N1	-0.3	-11	11%	-1.5	5	-2.9	-1.0	18
COc1ccc(NC(=O)CSc2nnc(-c3ccccn3)n2N)c(OC)c1	-0.9	-4	3%	0.3	-4	x	1.4	-8
CCOC(=O)c1c(NC(=O)COC(=O)CNC(=O)c2ccco2)sc(C)c1C	-0.3	-2	27%	2.1	-11	x	-3.7	13
Fc1ccc(CNCCC(Cc2ccccc2)c2ccco2)cc1 (stereo not drawn)	1.9	-1	10%	4.3	13	-1.9	0.2	31
CC1(C)Cc2[nH]c(=O)c(C#N)cc2CS1	1.3	-3	0%	-1.4	10	x	-0.4	-3
CCn1c(SCC(=O)N(C)Cc2ccc(OC)c(F)c2)nc2cc(S(N)(=O)=O)ccc21	0.9	-4	3%	-2.4	-3	2.7	-1.0	-4
CCC(=O)N1CCc2cc(S(=O)(=O)NC(C(=O)Nc3cccc(C)n3)C(C)C)ccc21 (stereo not drawn)	-0.1	-2	-1%	-6.0	-11	x	1.6	5
CC(C)NC(=O)CSc1ccccc1C(=O)NNC(=O)Cn1ccc(C(F)(F)F)n1	-0.3	-3	x	2.1	-8	-5.7	u	8
CNC(=O)c1[nH]cnc1C(=O)N[C@@H](Cc1ccccc1)C(=O)OCc1ccccc1	0.0	-4	u	2.8	-5	x	-1.4	-7
CCOc1ccc(-c2nnc(SCC(=O)N3CCN(c4ccccc4)CC3)o2)cc1	1.0	-2	-1%	-2.3	-6	-7.0	1.7	-9
CC(C)C(=O)N/N=C/c1ccc(OCc2ccccc2)cc1	0.8	-1	0%	3.4	-6	x	2.0	-11
COc1ccc(C(=O)C2CCN(C(=S)NCCc3ccccc3)CC2)cc1	0.3	-1	-1%	-6.9	4	0.6	3.0	1
O=C(CN1C(=O)c2ccccc2S1(=O)=O)N1CCN(c2ccccc2)CC1	0.7	-2	5%	-11	-11	-1.2	-5.3	-2
Cc1ccc(S(=O)(=O)N2CCC(=O)N(C(COCc3ccc(C(F)(F)F)cc3)Cc3ccccc3)CC2)cc1 (stereo not drawn)	-0.5	32	x	-2.8	37	-0.9	0.5	-13
CC(C)(C)OC(=O)NCCCCCNC(=O)c1nc[nH]c1C(=O)NCc1ccc(CNC(=O)OC(C)(C)C)cc1	0.5	45	x	2.2	x	3.1	x	x
CCCC(=O)Nc1ccc(C(=O)N/N=C/c2cccnc2)cc1	0.2	8	1%	0.1	-5	x	0.3	13

High-throughput results (PubChem BioAssay)
